BJeLR viability – kills HRASV12-expressing BJeLR cells. BJeLR (HRASV12) viability, CellTiter-Glo ATP luminescence, 48 h; reference of the scale not given here. inhibition, % (test concentration not listed). hit rate 0.17% among 300,000. AID 1554;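 active means replicate mean above 50%; inconclusive means above 50% but judged a plate artefact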;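 further: 50 nL library stock added to about 25 µL; numbers are from one replicate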
Mtb hypoxia inh – reduces hypoxia-regulated biosensor signal in M. tuberculosis | M. tuberculosis hypoxia-regulated fluorescent reporter, fluorescence | fluorescence inhibition, % (concentration not given with the values) | hit rate 0.1% among 300,000 | AID 1159583;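 active means 35 to 45% if threefold the growth effect, above 45% if 1.5-fold the growth effect; inactive means the rest, general growth blockers included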;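 further: wells of about 50 µL received 100 nL stock; 0% = vehicle wells and 100% = reference inhibitor wells; whole bacteria with a GFP reporter of the hypoxia response; strong numbers were not always called active; many hits fall short of the cut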
PrP UTR inh – inhibition of PrP 5' UTR reporter expression. cell-based PrP 5' UTR mRNA reporter, plate reader. inhibition, % (test concentration not listed). hit rate 0.35% among 340,000;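 active means every replicate at 50% or more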;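 further: 0 = median of the neutral control wells; tested in H4 reporter cells; numbers are from one replicate; inactives centre near -14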
Sa RN4220 lethal – kills Staphylococcus aureus RN4220 | S. aureus RN4220 growth, OD600, 16 h | inhibition, % (concentration not given with the values) | hit rate 0.33% among 330,000;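 active means z-score of -3 or lower and OD600 up to 0.18 on both plates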;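 further: plate controls were untreated cells for no effect and reference antibiotic for full effect; stock transfer was 100 nL into about 80 µL; one replicate is shown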
Sa ugtP lethal – kills S. aureus RN4220 lacking UgtP | S. aureus RN4220 ugtP deletion, OD600 growth, 16 h; some inactives read as strong as hits | hit rate 0.54% among 330,000 | AID 1259309 | growth inhibition, % (concentration not given with the values);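 active means z-score under -3 and OD600 up to 0.15 on both plates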;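 further: plate controls were untreated wells for no effect and antibiotic for full effect; wells of about 80 µL received 100 nL stock; the first replicate is given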
Bead autofluor – flagged as autofluorescent in microsphere protease counterscreen | compound autofluorescence counterscreen, microsphere flow cytometry; active compounds read high | fluorescence intensity (no concentration beside the values) | hit rate 3.1% among 360,000;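 active means at least 3 SD above the mean of all compounds, about 16000 in these data; inconclusive means too few beads counted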;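 further: 100 nL of 1 mM stock went into each well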
Mtb hypoxia inh growth – further read-out of Mtb hypoxia inh, marked with its call; growth inhibition, %; measured here: M. tuberculosis growth (absorbance);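 0% = vehicle and 100% = reference antibiotic; read after six days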
Starred values were filed as active, the others as inactive; ? = inconclusive; · = no result given; & = joins results of further samples.

no.	Compound	BJeLR viability	Mtb hypoxia inh	Mtb hypoxia inh growth	PrP UTR inh
1	O=C(Nc1cccc(S(=O)(=O)C(F)F)c1)c1ccc(S(=O)(=O)N2CCCCC2)cc1	-4	-15	-5	4
2	COc1cc(S(=O)(=O)N2CCN(Cc3ccc4c(c3)OCO4)CC2)c(C)cc1C	-7	·	·	-5
3	CC/S(C)=N/S(=O)(=O)c1ccc(C)cc1 (stereo unspecified)	-3	7	6	-22
4	O=C(N/N=C/c1cc(Br)ccc1O)c1ccncc1	-1	·	·	12
5	O=C(CN1C(=O)COc2ccccc21)N1CCCC1	2	-7	1	-29
6	CC1(C)SC(=S)N(NC(=O)Nc2cccc3ccccc23)C1N(O)C(=O)Nc1ccccc1 (stereo unspecified)	12	14	7	-5
7	O=C(NNC(=S)NC(=O)c1ccccc1[N+](=O)[O-])c1ccccc1[N+](=O)[O-]	-1	0	-1	-5
8	CC(C)CC(CO)N1CCN(CCCc2ccccc2)CCC1=O (stereo unspecified)	·	17	2	·
9	Cc1cccc(NS(=O)(=O)c2ccc3c(c2)CCC(=O)N3)c1	-1	10	6	-23
10	CCOc1ccc2nc(COC(=O)c3cccs3)c(C(=O)c3ccccc3)[n+]([O-])c2c1	7	-4	-1	-20

no.	Sa RN4220 lethal	Sa ugtP lethal	Bead autofluor
1	1.2	-3	3637
2	-3.5	11	6304
3	3.5	-1	8251
4	·	·	4451
5	0.2	-4	3415
6	7.7	-8	2511
7	8.5	2	7174
8	3.7	5	·
9	0.6	18	3766&3258
10	4.1	2	1960

Entries of single compounds from above.
COc1cc(S(=O)(=O)N2CCN(Cc3ccc4c(c3)OCO4)CC2)c(C)cc1C reads BJeLR viability: -7; Mtb hypoxia inh: ·; Mtb hypoxia inh growth: ·; PrP UTR inh: -5; Sa RN4220 lethal: -3.5; Sa ugtP lethal: 11; Bead autofluor: 6304
CCOc1ccc2nc(COC(=O)c3cccs3)c(C(=O)c3ccccc3)[n+]([O-])c2c1 reads BJeLR viability: 7; Mtb hypoxia inh: -4; Mtb hypoxia inh growth: -1; PrP UTR inh: -20; Sa RN4220 lethal: 4.1; Sa ugtP lethal: 2; Bead autofluor: 1960

(further entries)
no.	Compound	BJeLR viability	Mtb hypoxia inh	Mtb hypoxia inh growth	PrP UTR inh
11	O=C(NC1CCN(C(=O)Nc2cccc(Cl)c2)CC1)c1ccco1	-10	14	2	-34
12	Cc1ccc(NC(=S)N(CCN(C)C)Cc2cccs2)cc1C	-2	8	1	-14
13	CCCN(Cc1nnc(-c2cccs2)o1)C(=O)CN1C(=O)NC2(CCCCC2)C1=O	·	7	-2	-5
14	COc1ccc(NC(=O)CS(=O)(=O)c2cn(CC(=O)N3CCCC3)c3ccccc23)c(OC)c1	0	7	-1	-10
15	Clc1ccc2nc(-c3ccccc3)cn2c1	14	11	13	-19
16	COc1ccc(C(=O)C2CCCN(C(=O)COc3ccc(C(C)=O)cc3)C2)cc1F (stereo unspecified)	14	12	2	8
17	CC1CCN(c2c(NCC3CCC(C(=O)NCCC4=CCCCC4)CC3)c(=O)c2=O)CC1 (stereo unspecified)	6	6	9	-12
18	O=C(Nc1ccccc1)Nc1nc(-c2ccc(F)cc2)cs1	-11	2	0	-23
19	O=C1CCN(CCc2ccccc2)CCN1CCSc1ccc(Br)cc1	8	13	8	-8
20	CC(C(=O)CC(=O)OC(C)(C)C)C(O)c1ccccc1 (stereo unspecified)	·	5	12	·

no.	Sa RN4220 lethal	Sa ugtP lethal	Bead autofluor
11	3.7	-5	3517
12	0.0	-2	3837
13	0.0	2	4851
14	0.7	-3	5175
15	8.1	8	2974
16	5.6	3	3757
17	1.1	3	4497
18	1.8	1	2594
19	5.4	-22	3777
20	3.9	-10	·

Other entries.
no.	Compound	BJeLR viability	Mtb hypoxia inh	Mtb hypoxia inh growth	PrP UTR inh
21	COc1ccc(CCNC(=O)CC(C)=NNC(=O)C2CCCCC2)cc1OC	·	-1	4	·
22	Cc1ccc(F)cc1NC(=O)CN1CCN(c2ccccn2)CC1	2	20	13	-13
23	CCOC(=O)N1CCN(C(=O)CN(c2ccc3c(c2)OCO3)S(C)(=O)=O)CC1	0	8	1	-12
24	Cc1ccn2c(=O)nc(SCC(=O)NCc3ccccc3)nc2c1	6	8	8	-14
25	Cc1ccc(NC(=O)c2cccc(NC3=NC4CS(=O)(=O)CC4S3)c2)cc1C (stereo unspecified)	-4	-5	14	-39
26	CCc1ccc(CNCc2ccc(OCC(O)CN(C)Cc3ccccc3)cc2)nc1 (stereo unspecified)	14	13	5	-7
27	O=C1c2ccccc2C(=O)N1CCCc1nc2ccccc2c(=O)n1CCCn1ccnc1	·	8	18	-14
28	O=C(c1cc(COc2c(F)cccc2F)on1)N1CCC(c2ccncc2)CC1	24	-5	3	-15
29	CCCCn1c(N)c(N(CCOC)C(=O)c2cc3ccccc3cc2OC)c(=O)[nH]c1=O	3	4	4	-10
30	CCn1c(Cc2ccccc2)nnc1SCC(=O)Nc1ccccc1	1	6	2	-14

no.	Sa RN4220 lethal	Sa ugtP lethal	Bead autofluor
21	2.7	6	·
22	3.2	5	4478
23	5.7	13	6802
24	5.7	-1	4658
25	-2.3	0	5927
26	4.4	4	4315
27	5.8	9	19567*
28	8.6	7	3993
29	1.9	10	?
30	1.2	14	4450

Remaining list, next part.
no.	Compound	BJeLR viability	Mtb hypoxia inh	Mtb hypoxia inh growth	PrP UTR inh
31	O=C(CCCN1C(=O)NC2(CCCC2)C1=O)N1CCN(S(=O)(=O)c2ccccc2)CC1	·	3	10	-6
32	CCOC(=O)N1CCc2c(sc3[nH]c(=S)[nH]c(=S)c23)C1	8	5	-11	·
33	COc1ccc(C2SCC(=O)Nc3c2c(C)nn3C2CCOC(C)(C)C2)cc1OC (stereo unspecified)	-1	4	8	-17
34	COc1cc2c(c(OC)c1OC)-c1ccc(O)c(=O)cc1C(NC(C)=O)CC2 (stereo unspecified)	57*	-5	4	63*
35	COc1ccc(/C=N/O)cc1COc1ccc(NC(C)=O)cc1	-1	·	·	-28
36	Cc1ccccc1OCc1nnc2n1CC(C)S2 (stereo unspecified)	0	·	·	-17
37	CCOC(=O)COc1c(OC)cc(Cl)cc1C1Nc2ccccc2C(=O)N1c1ccc(F)cc1 (stereo unspecified)	4	6	-1	1
38	C/C(CCc1ccco1)=N\NC(=O)CNc1c(Br)cc(Br)cc1Br	-4	·	·	-7
39	Cc1[nH]c2ccccc2c1SCC(=O)N1CCC(C)CC1	5	7	9	-22
40	C[n+]1ccccc1/C=C/c1ccc([N+](=O)[O-])cc1	3	1	8	-2

no.	Sa RN4220 lethal	Sa ugtP lethal	Bead autofluor
31	0.5	-4	3797
32	8.7	3	·
33	3.3	2	23587*
34	11	0	3158
35	·	·	9578
36	4.0	8	5734
37	3.5	-19	5866
38	·	·	4218
39	5.6	1	4156
40	-0.8	7	3586

Next part.
no.	Compound	BJeLR viability	Mtb hypoxia inh	Mtb hypoxia inh growth	PrP UTR inh
41	O=C1/C(=C/c2c[nH]c3ccccc23)CCC/C1=C\c1c[nH]c2ccccc12	1	11	7	-38
42	CCOC(=O)/C(=C\c1cccnc1)C(=O)c1cc(C(C)=O)c(Nc2ccccc2)s1	53*	20	22	-21
43	Cc1c(NC(=O)COC(=O)C2CC3C=CC2C3)c(=O)n(-c2ccccc2)n1C (stereo unspecified)	-14	4	0	-12
44	CCSc1nnc(NC(=O)c2cccc3ccccc23)s1	-3	-1	11	-6
45	COc1cccc(Oc2nc(-c3ccncc3)nc3ccccc23)c1	12	1	-3	·
46	Cc1cccc(N(C(=O)C(F)(F)F)C(C(=O)NC2CCCCC2)c2cccs2)c1 (stereo unspecified)	-8	14	7	-7
47	CC(C)n1c(NCc2ccccc2O)nc2ccccc21	-2	-3	-1	-14
48	CCc1ccccc1N(CC(=O)NCC1CCCO1)C(=O)CCC(=O)Nc1cc(C)on1 (stereo unspecified)	2	12	5	-12
49	O=C(O)c1cccc(NS(=O)(=O)c2ccc(C3CCCCC3)cc2)c1	3	-1	2	-4
50	O=C(N/N=C/c1c[nH]c2ccccc12)c1cccc(O)c1	-4	·	·	-38

no.	Sa RN4220 lethal	Sa ugtP lethal	Bead autofluor
41	63	78	9658
42	9.0	-3	3409
43	6.8	11	3069
44	3.9	0	6412
45	-2.9	0	4625
46	2.6	-4	10259
47	0.1	0	3793
48	1.7	0	3950
49	10	5	4770
50	·	·	3702

Continuation:
no.	Compound	BJeLR viability	Mtb hypoxia inh	Mtb hypoxia inh growth	PrP UTR inh
51	CC(C)CNC(=O)CN1C(=O)NC2(CCc3ccccc32)C1=O (stereo unspecified)	2	-2	2	-27
52	O=C(CN1C(=O)NC2(CCCCCC2)C1=O)c1ccc(F)cc1	-1	2	2	-15
53	Nn1c(SCC(=O)NC(=O)Nc2ccc3c(c2)OCCO3)nnc1C1CC1	-2	0	-2	-16
54	COc1cccc(NC(=O)C(=S)NC2CCCCC2)c1	-13	-15	-1	-89
55	O=C(NCc1ccoc1)c1ccc(NC(=O)c2ccccc2Cl)cc1	4	·	·	3
56	O=C(NC1CCCCC1)C(Cc1ccccc1)N1C(=O)C2C3CCC(C3)C2C1=O (stereo unspecified)	-12	9	13	-22
57	O=C(CCN1C(=O)COc2ccccc21)N1CCN(c2ccccn2)CC1	4	8	14	-11
58	COC(=O)C(C)Sc1ccc2nnc(-c3ccc(F)cc3)n2n1 (stereo unspecified)	3	10	2	-24
59	O=C(COc1ccc(S(=O)(=O)N2CCCC2)cc1)NCc1ccco1	7	15	2	-17
60	CCOC(=O)c1cnn(-c2nc(-c3ccccc3F)cs2)c1C(F)(F)F	-4	1	8	-27

no.	Sa RN4220 lethal	Sa ugtP lethal	Bead autofluor
51	0.2	7	3913
52	1.6	5	?
53	1.1	6	2269
54	26	-2	3671
55	3.9	8	2717
56	2.3	-1	4201
57	11	-1	5581
58	1.4	1	8225
59	-1.3	1	3783
60	-1.9	43	19894*

The list continues.
no.	Compound	BJeLR viability	Mtb hypoxia inh	Mtb hypoxia inh growth	PrP UTR inh
61	CC(=O)Nc1ccc(NC(=S)NC(=O)/C=C/c2ccco2)cc1	-17	-2	-1	-9
62	O=C(NCCCN1CCCC1=O)c1ccc2c(c1)OCO2	·	-9	-2	-54
63	O=C(N/N=C/c1ccccc1[N+](=O)[O-])c1ccc(COc2ccccc2-c2ccccc2)cc1	3	·	·	-6
64	CCCCNC(=O)C1CCC(=O)N1CCc1ccccc1 (stereo unspecified)	-3	0	-1	-23
65	Cc1cccc(-n2c(N)cc(=O)nc2SCC(=O)NC2CCCCC2)c1	-3	4	10	1
66	CC(C)(C)c1cc[n+](C2=C([O-])c3ccccc3C(=O)/C2=N\S(=O)(=O)c2ccccc2)cc1	-10	0	6	·
67	Cc1ccccc1OCc1nc2ccccc2c(=O)n1/N=C/c1ccco1	-8	·	·	-27

no.	Sa RN4220 lethal	Sa ugtP lethal	Bead autofluor
61	3.6	86*	3782
62	-5.6	-5	20949*
63	·	·	2462
64	4.9	5	3810
65	1.0	2	2484
66	9.8	0	6221
67	·	·	2922

Compound activity from PubChem BioAssay.
